Source: PubChem (Center for Chemical Genomics, University of Michigan)
CDC25B-CDK2 inh = primary biochemical HTRF screen for blockers of M-phase inducer phosphatase 2 binding to CDK2/cyclin A; z-score (no concentration beside the values); 94,000 tested, 0.72% active; HTRF CDC25B-CDK2/CyclinA binding, anti-His/anti-Flag; hits give high values; P30305+P24941;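 further: score is relative to mean and SD of negative controls; strong numbers were not always called active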
TAR Tat displ = TAR RNA-Tat peptide displacers, HIV-1, primary screen, biochemical, FRET, FAM/TAMRA-labeled Tat | HIV-1 TAR RNA, Tat peptide displacement FRET; hits give high values | 100,000 tested, 0.6% active | AID 1259389, 2018 | z-score (no concentration beside the values);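 further: score is relative to mean and SD of negative controls; some compounds called inactive have numbers as strong as hits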
Active calls of the source: *; x = no result given.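 How the source made its calls: active means z-score from 3 up in half or more of its runs; inactive means the rest.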

Molecule | CDC25B-CDK2 inh | TAR Tat displ
COCCCN1C(=O)c2c(C(=O)OC)ncn2CC1(C)C(=O)NC1CCCC1 (configuration not stated) | -1.7 | 2.2
O=C(Nc1sc2c(c1C(=O)NCC1CCCO1)CCC2)c1cc(-c2ccc3c(c2)OCCO3)on1 (configuration not stated) | -1.9 | 0.53
O=c1[nH]c(SCCCCOc2ccc(Cl)cc2)nc2c1CCC2 | 1.8 | 1.1
C#CCNc1cc(C)nc2nncn12 | 1.9 | -0.45
Cc1nc(/C(N)=N/OC(=O)c2c(-c3ccccc3)noc2C)cs1 | -0.93 | x
CCCCN(C)CCNC(=O)NCc1noc2ccc(C)cc12 | x | 0.12
C=CCN1C(=O)C2(/C(=C(/O)c3ccc(Cl)cc3)C(=O)C(=O)N2CCCOC)c2ccccc21 (configuration not stated) | 0.25 | 1.8
O=C(O)c1nnn(Cc2cccc(Cl)c2)c1C(=O)O | -0.68 | 1.9
COC(=O)c1c(SCC(=O)NCCC2=CCCCC2)[nH]c2ccccc2c1=O | x | -5.4
O=S(=O)(c1ccc(Cl)cc1)N1CCN(Cc2c(F)cccc2F)CC1 | 0.51 | x
O=C1CSc2ccc(S(=O)(=O)NCCCc3ccccc3)cc2N1 | x | 0.75
CCCN(Cc1cccs1)C(=O)Nc1ccc(F)cc1 | -1.2 | 1.3
COc1cc(C2c3c(oc4ccc(F)cc4c3=O)C(=O)N2CC2CCCO2)ccc1O (configuration not stated) | -1.1 | -1.2
CC1=C(C(=O)OC(C)C)C(c2ccccc2OC(C)C)C2=C(CCCC2=O)N1 (configuration not stated) | -1.4 | 0.9
CC1CCc2c(cnc3c(C(=O)NCCCN4CC(C)CC(C)C4)cnn23)C1 (configuration not stated) | x | -0.07

Molecule | CDC25B-CDK2 inh | TAR Tat displ
O=C(Nc1ccc2c(c1)OCCO2)C1CCN(c2ncnc3c2sc2cccc(F)c23)CC1 | -6.8 | -0.19
Cc1nn(CC(=O)Nc2sc3c(c2C#N)CCCC3)c(C)c1[N+](=O)[O-] | -1.3 | x
C=CCOc1ccccc1C1CC(=O)Nc2c(-c3ccccc3)csc21 (configuration not stated) | x | 2.7
CCC(CO)NC(=O)c1c(O)nc2cc(C)ccn2c1=O (configuration not stated) | -3 | -1.1
CSc1sc(C(N)=S)c(C)c1C(C)=O | -0.79 | x
CC(C)NC(=O)c1sc2nc(-c3cccs3)cc(-c3ccc(F)cc3)c2c1N | -1.2 | x
c1ccc(Cn2ncc3c2ncn2c(CSc4nc5ccccc5o4)nnc32)cc1 | 0.09 | x
CCN1CCN(c2ncc3c(n2)CC(/C=C/c2ccccc2)CC3=O)CC1 (configuration not stated) | -1.9 | 0.35
CC(=O)n1c2ccccc2c2c(C#N)c(N3CCCCC3)sc21 | -1.8 | -0.61
Cc1nc2c(c(C)nn2C(C)(C)C)c(C)c1CCC(=O)N1CCCC1 | -0.3 | 1
CCc1nn(CC(=O)N2C(C)CCCC2C)c(=O)c2cc3sc(C)cc3n12 (configuration not stated) | -0.79 | x
CCNC(=O)C1Cc2ccccc2N1C(C)=O (configuration not stated) | x | 1.3
O=C(CSc1nc2ncccc2o1)Nc1ccc(Cl)cc1F | x | -5.4
Cc1nnc(N2CCN(C(=O)NCc3ccco3)CC2)c2nn(-c3ccccc3)c(C)c12 | x | -1.8
O=C(NCCc1ccc(Cl)cc1)C1=Cc2cc(Br)ccc2OC1 | x | 1.5

Molecule | CDC25B-CDK2 inh | TAR Tat displ
CCN(CC)C(=O)c1oc2ccccc2c1NC(=O)C1CCCCC1 | x | -2.8
Cc1ccn2c(=O)c(NC(=O)CCCc3ccccc3)c(C)nc2c1 | x | 0.36
O=C(COc1ccc(Cl)cc1)Nc1cccc(OCc2cc(=O)n3nc(C4CC4)sc3n2)c1 | -4.6 | -0.96
Cn1c(=O)c2c(n(C)c1=O)=NC(S(=O)(=O)c1ccc(F)cc1)C=2 (configuration not stated) | -1.2 | -0.3
CCN(CC)CCNC(=O)c1c(C)[nH]c(/C=C2\C(=O)Nc3ccc(Cl)cc32)c1C | x | -4
CNC(=O)c1c(NC(=O)C2=COCCO2)sc2c1CCC2 | x | 1.3
O=C(Cn1c(=O)oc2cc(S(=O)(=O)N3CCCC3)ccc21)N1CCCCC1c1cccnc1 (configuration not stated) | 0.01 | 0.39
COCc1cc(=O)[nH]c(SCCS(=O)(=O)c2ccc(Cl)cc2Cl)n1 | -2.1 | x
O=S(=O)(Nc1nc(SCc2ccc(Cl)cc2)n[nH]1)c1ccc2c(c1)CCO2 | -0.09 | x
COc1ccc(C2Nc3n[nH]c(C)c3C3=C2C(=O)CC(C)(C)C3)cc1 (configuration not stated) | -1.8 | x
CC(C)CCn1c(SCC(=O)Nc2nccs2)nc2ccsc2c1=O | -2 | x
CN(C)C(CNC(=O)COc1ccc(Br)cc1)c1ccco1 (configuration not stated) | -2.6 | 2.5
Cc1c(C)n(C(=O)CSc2nncn2C)c2ccccc12 | -1.1 | x
Cc1ccc(S(=O)(=O)NCCc2csc(-c3ccc(Cl)cc3)n2)c(C)c1 | x | -0.6
Cc1c(NC(=O)CCCC(=O)O)c(=O)n(-c2ccccc2)n1C | 0.65 | -1.3

Molecule | CDC25B-CDK2 inh | TAR Tat displ
CCOCCc1nn2c(=O)cc(COC(=O)C(CC)c3ccccc3)nc2s1 (configuration not stated) | x | 0.35
Cc1ccc(N(CC(O)Cn2c3ccccc3c3ccccc32)S(C)(=O)=O)cc1 (configuration not stated) | -1.7 | -1.6
Cc1c(Br)c(C(F)(F)F)nn1CC(=O)O | x | 2
O=C(O)C1CC(=O)N(Cc2ccccc2)C1 (configuration not stated) | x | 0.6
CCc1ccc(-n2nnc(-c3nc(-c4ccc5c(c4)OCO5)no3)c2C)cc1 | x | -0.12
O=C(NC1CC1)c1cccc(-n2cnnc2)n1 | x | 0.64
COc1cccc(OCCn2cncn2)c1 | -0.66 | x
N#Cc1cc2c(=O)n3ccccc3nc2n(-c2cccc(Br)c2)c1=O | -8.7 | -6.2
O=C(Cc1scnc1-c1cccs1)N1CCN(c2ccccc2)CC1 | 0.81 | 0
CC(C)CCN(Cc1ccco1)C(=O)Nc1cn(C)c(=O)c2ccccc12 | x | -2.2
Cn1c2c(c(=O)n(C)c1=O)C(NC(=O)c1cccnc1)(C(F)(F)F)C(=O)N2 (configuration not stated) | -1.7 | x
COc1cccc2c1OC1=C(C(=O)CC(C)(C)C1)C2CC(=O)c1ccc(O)cc1 (configuration not stated) | -1.1 | 0.82
CCCc1cnc(Oc2ncnc3cc(Cl)ccc23)nc1 | -2 | x
O=C(CN1CCOCC1)Nc1ccc2nc3n(c(=O)c2c1)CCCC3 | 0.6 | -1.3
O=C(Nc1cccs1)Nc1ccccc1Br | 0.01 | 0.94

Molecule | CDC25B-CDK2 inh | TAR Tat displ
CCOC(=O)c1ccc(NC(=S)NC)cc1 | -1.1 | x
CCCN1C(=O)C(=O)c2cc(Br)ccc21 | -1.6 | 1.1
CCCn1c(NCc2ccccc2)nc2c1c(=O)[nH]c(=O)n2C | -1.3 | x
CCOC(=O)c1c(NC(=O)CC)sc2c1CCC2 | 0.53 | -1.7
CCCN(CCC)CCNS(=O)(=O)c1cc2c(cc1C)NC(=O)CO2 | x | 2
CC/C(=N\NS(=O)(=O)c1ccc(C)cc1)c1ccco1 | -0.96 | x
CCN1CCCC1CNC(=O)c1cccc(C(=O)NCC2CCCN2CC)n1 (configuration not stated) | x | 1.1
CC(=O)NCC(c1ccco1)S(=O)(=O)c1cccs1 (configuration not stated) | x | 0.73
Cc1ccc2occ(CC(=O)N(Cc3cccs3)C3CCS(=O)(=O)C3)c2c1 (configuration not stated) | -3.4 | 0.99
CCOC(=O)C1=C(C)NC2=C(C(=O)CCC2)C1c1coc2ccccc2c1=O (configuration not stated) | 0.03 | 0.85
CN(C)c1cccc2c(S(=O)(=O)NN)cccc12 | -1.2 | x
O=S1(=O)C[C@H](NC2CC2)[C@@H](S(=O)(=O)c2ccc(Cl)cc2)C1 | -2.7 | 0.3
Cc1ccc2[nH]c3c(=O)n(CCCN4CCCCC4C)cnc3c2c1 (configuration not stated) | -1.6 | 0.15
CC(=O)N(c1ccccc1)C1SC(=O)N(c2ccccc2)C1=O (configuration not stated) | -1.7 | 1.5
O=C(CN1C(=O)c2ccccc2S1(=O)=O)NCc1ccco1 | 0.36 | -0.25

Molecule | CDC25B-CDK2 inh | TAR Tat displ
CN1C(=O)NC(c2cccc(O)c2)C(C(=O)c2cccs2)C1(O)C(F)(F)F (configuration not stated) | -0.91 | x
CC(=O)N1CCN([C@H]2CS(=O)(=O)C[C@@H]2S(=O)(=O)c2ccccc2)CC1 | -0.69 | -0.52
CCc1cc(=O)[nH]c(N2CCCCC2)n1 | -2.2 | -1.9
COc1ccc(OC)c(Nc2nc3ccccc3n3cnnc23)c1 | 1.4 | -0.61
CC(=O)N1c2ccccc2NC2=C(C(=O)CC(C)(C)C2)C1c1cccc(Cl)c1 (configuration not stated) | 0.66 | 1.1
Cc1noc(-c2c(C)sc(C)c2S(=O)(=O)N2CCN(C(=O)c3ccco3)CC2)c1C | x | -1.2
CC(C)Cn1cnc2c(sc3nc4c(cc32)COC(C)(C)C4)c1=O | x | 0.3
Cn1c(NCc2ccccc2)nc2c1c(=O)n(Cc1ccc(Br)cc1)c(=O)n2C | 1.5 | 0.26
CCOc1ccccc1-c1nc(-c2ccc(-c3cccc(OC)c3)nc2OC)no1 | -1.9 | -1.8
COc1ccc(NS(=O)(=O)c2ccc3c(c2)NC(=O)C(C)CS3)cc1OC (configuration not stated) | x | 1.2
CCS(=O)(=O)NCCS(=O)(=O)N1CCN(c2ccccc2)CC1 | x | -0.09
CCOC(=O)C1=C(N)Oc2ccc3ccccc3c2C1c1ccc2c(c1)OCO2 (configuration not stated) | 0.26 | 0.38
COc1ccc(C2CC(=O)NC3=C2C(=O)CC(c2ccc(OC)c(OC)c2)C3)cc1 (configuration not stated) | -2.2 | 1.5
c1ccc2c(C3Nc4cccc5cccc(c45)N3)cccc2c1 | -1.2 | 8.2*
O=C(CSc1nc2cc(Cl)c(Cl)cc2[nH]1)c1ccccc1 | -1.3 | x

Molecule | CDC25B-CDK2 inh | TAR Tat displ
CCS(=O)(=O)N1CCN(S(=O)(=O)c2ccc(-n3cnnn3)c(C)c2)CC1 | -1.6 | 0.16
O=C(NCCCN1CCN(c2ccc(F)cc2)CC1)NCc1noc2ccccc12 | x | 0.02
O=c1cc(CSc2nnc(-c3ccc(Cl)cc3)o2)nc2sc3c(n12)CCCC3 | -0.1 | -0.09
CC(=O)OCN1C(=O)N(COC(C)=O)C2C1N(COC(C)=O)C(=O)N2COC(C)=O (configuration not stated) | -1.4 | x
Cc1n[nH]c(C)c1-c1c(C)n[nH]c1C | -2.5 | -1.2
N/C(=N/OC(=O)c1ccccc1Cl)c1ncc([N+](=O)[O-])s1 | -2.1 | x
O=c1c(F)cn(C2CCCO2)c(=O)n1Cc1cccc2ccccc12 (configuration not stated) | -8.1 | x
O=C(NCCN1CCOCC1)c1nc(-n2cnnc2)ccc1Br | x | 2.2
COCCCN(Cc1ccco1)C(=O)Cn1ncc2c([nH]c3ccccc32)c1=O | x | 3.1
OCCN1CCN(c2nccc(C(F)(F)F)n2)CC1 | 0.25 | x
Cc1cc(C(=O)NCC2COc3ccccc3O2)nn1C (configuration not stated) | 1.4 | x
Cc1cccc(-n2ncc3c2ncn2nc(COc4c(C)cccc4C)nc32)c1 | 0.37 | -0.23
Cc1cc(C)c(NC(=O)c2cnc3scc(C)n3c2=O)c(C)c1 | -1.2 | 1.8
Cc1c(-c2nc(-c3ccccc3F)no2)nnn1-c1cc(F)ccc1F | x | 1.2
O=C(NCc1ccc2c(c1)OCO2)c1ccc(CS(=O)c2ccc(Cl)cc2)o1 (configuration not stated) | -0.39 | 1.2

Part of the list above in another layout:
Every second line gives: CDC25B-CDK2 inh, TAR Tat displ
N/C(=N/OC(=O)c1ccccc1Cl)c1ncc([N+](=O)[O-])s1
→ -2.1, x
O=c1cc(CSc2nnc(-c3ccc(Cl)cc3)o2)nc2sc3c(n12)CCCC3
→ -0.1, -0.09
Cc1cc(C(=O)NCC2COc3ccccc3O2)nn1C (configuration not stated)
→ 1.4, x
COCCCN(Cc1ccco1)C(=O)Cn1ncc2c([nH]c3ccccc32)c1=O
→ x, 3.1
Cc1cc(C)c(NC(=O)c2cnc3scc(C)n3c2=O)c(C)c1
→ -1.2, 1.8
CC(=O)OCN1C(=O)N(COC(C)=O)C2C1N(COC(C)=O)C(=O)N2COC(C)=O (configuration not stated)
→ -1.4, x
Cc1n[nH]c(C)c1-c1c(C)n[nH]c1C
→ -2.5, -1.2

(more compounds)
Molecule | CDC25B-CDK2 inh | TAR Tat displ
CCc1ccc(NS(=O)(=O)c2cc(-c3onc(C)c3C)ccc2C)cc1 | x | 0.23
COc1ccccc1-c1coc2cc(OC(=O)c3ccc(Cl)cc3)ccc2c1=O | -3 | 0.95
Cc1ccc(-c2nc(CSc3nc4ccncc4[nH]3)c(C)o2)cc1 | -0.18 | 1.8
Cc1nc(C(F)(F)F)c(C(=O)O/N=C(\N)c2cccc(C(F)(F)F)c2)s1 | -0.92 | x
CNC(=O)c1c(N2CCCC2=O)c2cc(F)ccc2n1C | x | -1
Cc1ccc(Nc2n[nH]c(=S)s2)cc1 | -2.1 | x
Cc1cc(C)n2ncc(C(=O)N3CCC(C)CC3)c2n1 | x | 1.3
CCC(=O)N1CCN(c2cc(N3CCCC3)nc(C)n2)CC1 | -1.2 | -0.36
Cc1cc(C)c2c(n1)SCCN2C(=O)CCC(=O)NC1CCCCC1 | x | -1.2
COc1ccc(Cl)cc1NC1c2ccccc2C(=O)N1c1cccnc1 (configuration not stated) | -0.42 | -0.13
S=c1nc[nH]c2nn(-c3ccccc3)cc12 | -0.18 | 1.1
CCCOC(=O)c1c(NC(=O)c2nc3ncccn3n2)sc(C(N)=O)c1C | -0.14 | x

Taken from above:
For TAR Tat displ, CCc1ccc(NS(=O)(=O)c2cc(-c3onc(C)c3C)ccc2C)cc1 shows 0.23
For CDC25B-CDK2 inh, CCCOC(=O)c1c(NC(=O)c2nc3ncccn3n2)sc(C(N)=O)c1C shows -0.14
